Bioassay records deposited in PubChem BioAssay by Vanderbilt University.
GIRK2 activ: activators of human GIRK2 potassium channels; P48051; HEK293-GIRK2 thallium flux, Thallos fluorescence; calls only for hits at 25 µM; 63,000 compounds, 0.05% hits;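 active = among the strongest 0.2% of first-round signals and kept after retests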;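 also: first round at about 10 µM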
Target sequence (P48051 whole entry, looked up): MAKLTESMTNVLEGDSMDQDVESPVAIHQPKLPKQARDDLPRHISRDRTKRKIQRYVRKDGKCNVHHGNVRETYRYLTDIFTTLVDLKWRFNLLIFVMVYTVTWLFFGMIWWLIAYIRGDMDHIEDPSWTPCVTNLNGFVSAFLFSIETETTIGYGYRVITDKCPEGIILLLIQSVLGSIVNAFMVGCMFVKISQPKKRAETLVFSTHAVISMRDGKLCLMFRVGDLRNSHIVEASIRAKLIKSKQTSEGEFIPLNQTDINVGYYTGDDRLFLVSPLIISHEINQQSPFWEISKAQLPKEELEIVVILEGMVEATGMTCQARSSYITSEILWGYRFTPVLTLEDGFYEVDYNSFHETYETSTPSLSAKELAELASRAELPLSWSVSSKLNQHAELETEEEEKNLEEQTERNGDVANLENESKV
Calls only; i = inactive. This is a subset (hit frequency here may not be typical).

SMILES | GIRK2 activ
Cc1cc(=O)n(CC(=O)NCc2ccc(F)cc2Cl)c(N)n1 | i
Cc1csc(C(=O)Nc2ccc(-n3nnn(CC(=O)N4CCOCC4)c3=O)cc2)c1 | i
O=C(c1ccc(Cn2ccnc2)cc1)N1CC(c2nc(-c3cnccn3)no2)C1 | i
COc1ccc(S(=O)(=O)N2CCCOC2CNC(=O)C(=O)NC2CCCCCC2)cc1 (configuration not stated) | i
NC(=O)CSc1nc(-c2ccccc2)cc(C(F)(F)F)n1 | i
CC(C)(CCl)C(=O)NCc1n[nH]c(=O)c2ccccc12 | i
Cc1[nH]c(=O)n(C)c(=O)c1CCC(=O)Nc1ccccc1C(N)=O | i
Cc1ccc(-c2noc(Cn3ccn(-c4cc(C)cc(C)c4)c(=O)c3=O)n2)cc1 | i
O=C(Nc1ccc(-c2cnc3n2CCC3)cc1)c1cc(C2CC2)on1 | i
Cc1nc(N2CCCC2)nc(C)c1NC(=O)C1CCCC1 | i
Cc1onc(-c2ccccc2Cl)c1C(=O)N1CCC(CSc2nccn2C)CC1 | i
CCOC(=O)CCNC(=O)N1CCN(Cc2nnnn2-c2ccc(F)c(F)c2)CC1 | i
Cc1cc(C(=O)NCCC(O)C2CC2)c(C)o1 (configuration not stated) | i
Cc1cc(C)c(NC(=O)CN2CCOCC2)c(C)c1 | i
CS(=O)(=O)N1CCc2nc(NC(=O)c3c(F)cccc3Cl)sc2C1 | i
Cc1nn(C2CCS(=O)(=O)C2)c(C)c1N1CCN(C(=O)CCn2cnc3ccccc3c2=O)CC1 (configuration not stated) | i
COc1ccc(CCC(=O)NCC2(CO)CC2)cc1 | i
COCCN(Cc1ccoc1)S(=O)(=O)c1ccc(F)c(Cl)c1 | i
Cn1cccc(C(=O)NC2CC(=O)N(C3CC3)C2)c1=O (configuration not stated) | i
COC(=O)C(C)Oc1ccc2c(c1)O/C(=C\c1cc(Cl)cc3c1OCOC3)C2=O (configuration not stated) | i
COCCOC(=O)C1=C(C)NC(=O)NC1c1ccc(OCc2ccccc2)cc1 (configuration not stated) | i
CN(C)C(=O)c1nnn(-c2ccc(NC(=O)c3c(F)cccc3Cl)cc2)n1 | i
CC(C)=CCc1c(O)cc2oc3cc(O)ccc3c(=O)c2c1O | i
Cc1ccc2nc(N3CC(C(=O)Nc4ccc(Br)cc4F)C3)sc2c1 | i
COc1ccccc1-c1coc2cc(OCC(=O)c3ccc(F)cc3)ccc2c1=O | i
Cc1cc(C(=O)N2CCC(CSCc3ccco3)CC2)no1 | i
Cc1ccc(S(=O)(=O)NCCC(=O)O)c(C)c1N(C)S(C)(=O)=O | i
COc1ccc(-c2c(C)oc3c4c(ccc3c2=O)OCN(CCc2cccs2)C4)cc1 | i
Cn1cnnc1SCCNC(=O)CCc1cccc(Oc2ccc(F)cc2)c1 | i
COc1ccc(/C=C/c2nc(C#N)c(N3CCN(C(=O)c4cccc(Cl)c4)CC3)o2)cc1 | i
Cn1nc(-c2cccs2)cc1C(=O)Nc1nc(-c2ccco2)cs1 | i
CCC(C)n1c(C)c(C)n2c3c(=O)n(CCC(C)C)c(=O)n(C)c3nc12 (configuration not stated) | i
COc1ccc(OC)c(CNC(=O)c2nnn(-c3ccc(Cl)cc3)c2-c2cccnc2)c1 | i
CCOC(=O)N1CCC(Oc2ccccn2)CC1 | i
O=C(Nc1ccc(-c2cnc3n2CCC3)cc1)c1ccccc1Br | i
CCOc1ccc(N2C(=O)C3N=NN(Cc4nc(-c5ccc(Cl)cc5)no4)C3C2=O)cc1 (configuration not stated) | i
O=c1c2cc(-c3cccs3)nn2ccn1Cc1cccc(Cl)c1 | i
O=C(c1csc(-c2ccccc2)n1)N1CCCSCC1CN1CCCC1 (configuration not stated) | i
CC1=C([N+](=O)[O-])C(c2ccccc2OC(F)F)N(C)C(=O)N1C (configuration not stated) | i
COc1ccc(Cn2c(-c3ccco3)nc3c(c(=O)c4ccccc4n3C)c2=O)cc1 | i
O=C(Cc1ccc(F)cc1)Nc1cnc(N2CCN(c3ccccn3)CC2)nc1 | i
CCC(C(=O)Oc1c(S(=O)(=O)c2ccc(C)cc2)c(C)nn1C(C)(C)C)c1ccccc1 (configuration not stated) | i
C/C=C(/C)C(=O)OC1c2c(ccc3ccc(=O)oc23)OC(C)(C)C1O (configuration not stated) | i
COc1ccc(C(=O)/C=C/c2ccc(C)cc2)cc1 | i
O=C(CSc1nnc(CCc2nc3ccccc3[nH]2)o1)N1CCN(c2ccccn2)CC1 | i
O=C(Nc1cccs1)N(CCc1cccs1)Cc1ccco1 | i
O=C(CSc1nc2ccccc2o1)N1CCN(Cc2csc(-c3ccccc3)n2)CC1 | i
Cc1cc(C)c(S(=O)(=O)N2CCN(c3ccc(-c4cccnc4)nn3)CC2)c(C)c1 | i
CSc1cccc(Nc2c(C(=O)N3CCOCC3)cnc3nc(C)ccc23)c1 | i
COc1cccc(CSc2nc(CC(=O)Nc3ccccc3C(N)=O)cc(=O)[nH]2)c1 | i
Nc1c(C(=O)c2ccc(CCCN3CCOCC3)cc2)cnn1-c1ccc(F)cc1 | i
CCn1c(=O)c2c(nc3n(-c4cccc(OC)c4)c(C)cn23)n(C)c1=O | i
COC(=O)c1sccc1NC(=O)OC(C)(C)C | i
Cc1cc(C)n(CCNC(=O)CCCn2cnc(-c3ccc(F)cc3)cc2=O)n1 | i
COCCNc1oc(-c2ccc(COc3cccc(C)c3)o2)nc1C#N | i
O=C(Nc1ccon1)c1nnn(-c2ccc(Cl)cc2)n1 | i
Cc1cc(C(=O)NCCc2nc(C3CC3)cc(C(F)(F)F)n2)c(C)o1 | i
Cc1ccc(C)c2sc(N(C)CC(=O)Nc3ccc(-n4cnnn4)cc3)nc12 | i
Cn1c(-c2ccccn2)nn(CCNC(=O)Cc2cccs2)c1=O | i
C/C(Cl)=C/Cn1c(N2CCC(Cc3ccccc3)CC2)nc2c1c(=O)[nH]c(=O)n2C | i

Structural class: the compounds so far with an NH in an aromatic ring
SMILES | GIRK2 activ
CC(C)(CCl)C(=O)NCc1n[nH]c(=O)c2ccccc12 | i
Cc1[nH]c(=O)n(C)c(=O)c1CCC(=O)Nc1ccccc1C(N)=O | i
O=C(CSc1nnc(CCc2nc3ccccc3[nH]2)o1)N1CCN(c2ccccn2)CC1 | i
COc1cccc(CSc2nc(CC(=O)Nc3ccccc3C(N)=O)cc(=O)[nH]2)c1 | i
C/C(Cl)=C/Cn1c(N2CCC(Cc3ccccc3)CC2)nc2c1c(=O)[nH]c(=O)n2C | i

Following part
SMILES | GIRK2 activ
COc1ccc(NC(=O)c2nnn(-c3ccccc3)c2C2CC2)cc1 | i
O=C(NCCn1ncccc1=O)c1ccc(OCc2nc(-c3ccco3)cs2)cc1 | i
COc1ccc(C(=O)N2CCN(c3oc(-c4ccccc4)nc3C#N)CC2)cc1OC | i
Cc1cc(C(=O)N2CCC(CSCc3ccco3)CC2)c(C)o1 | i
COC(=O)c1ccccc1NC(=O)c1nnn(-c2ccc(OC)cc2)n1 | i
CC(=O)N(C)CC(=O)Nc1cnc(N2CCN(c3ccccn3)CC2)nc1 | i
CCc1nc2sc(C(c3cccc(Br)c3)N3CCCC3)c(O)n2n1 (configuration not stated) | i
COc1ccc(CNC(=O)C2CCN(c3cc(Oc4ccccc4)ncn3)CC2)c(OC)c1 | i
Cc1cc(C)c(S(=O)(=O)N(C)CCCC(=O)O)cc1N(C)S(C)(=O)=O | i
COc1ccc(C2=NC3(CCN(CC(=O)Nc4cccc(OC)c4)CC3)NC2=O)cc1 | i
O=C(Cc1cccs1)NCCCS(=O)(=O)N1CCN(c2ncccn2)CC1 | i
CC1Oc2ccccc2OC1C(=O)Nc1ccc(-c2ccn[nH]2)cc1 (configuration not stated) | i
NS(=O)(=O)c1ccc(NC(=O)CSc2nc3ccccc3[nH]2)cc1 | i
O=C(CN1C(=O)CCC1=O)Nc1ccc(N2CCCS2(=O)=O)cc1 | i
CCOc1ccc(CNc2nccc(-n3nc(C)cc3C)n2)cc1 | i
O=C(CSCc1ccccc1)NCC1CCN(Cc2cccs2)CC1 | i
O=C(CSc1nc2ccccc2c(=O)n1Cc1ccc(Cl)cc1)Nc1ncn[nH]1 | i
CC(C)CC(=O)c1c(O)cc2c(c1O)C(CC(C)C)C1=C(O2)C(C)(C)C(=O)C(C)(C)C1=O (configuration not stated) | i
Cc1cc(NC(=O)C2CCCCC2)n(-c2nc(-c3ccc4c(c3)OCO4)cs2)n1 | i
OCc1cccnc1 | i

Exported as comma-separated lines: part of the list above
compound,GIRK2 activ
C/C(Cl)=C/Cn1c(N2CCC(Cc3ccccc3)CC2)nc2c1c(=O)[nH]c(=O)n2C,i
O=C(CSc1nc2ccccc2c(=O)n1Cc1ccc(Cl)cc1)Nc1ncn[nH]1,i
CC1=C([N+](=O)[O-])C(c2ccccc2OC(F)F)N(C)C(=O)N1C (configuration not stated),i
CCOc1ccc(CNc2nccc(-n3nc(C)cc3C)n2)cc1,i
Cc1cc(C(=O)N2CCC(CSCc3ccco3)CC2)c(C)o1,i
CC(C)CC(=O)c1c(O)cc2c(c1O)C(CC(C)C)C1=C(O2)C(C)(C)C(=O)C(C)(C)C1=O (configuration not stated),i

Later entries.
SMILES | GIRK2 activ
CCN(CC)C(=O)Cn1cc(C(=O)C(=O)NCCN2CCOCC2)c2ccccc21 | i
COC(=O)N1CCc2ccc(F)cc2C1C(=O)Nc1ccc2c(c1)OCO2 (configuration not stated) | i
Cc1cc(NS(=O)(=O)c2ccc(NC(=O)c3ccc(Br)o3)cc2)no1 | i
O=c1[nH]c(N2CCN(c3ccccc3F)CC2)nc2c(-c3ccccc3F)csc12 | i
O=C(c1n[nH]c2ccccc12)N1CCN(Cc2nncn2-c2ccccc2)CC1 | i
O=C(NCCC(O)C1CC1)c1ccsc1 (configuration not stated) | i
O=C(Cn1nc(-c2cccs2)ccc1=O)Nc1cc(C(F)(F)F)ccc1Cl | i
CCc1cc2c(CN3CCN(Cc4ccccc4)CC3)cc(=O)oc2cc1O | i
Cc1ccc(CNC(=O)C2CCN(c3ncccc3S(=O)(=O)N3CCOCC3)CC2)cc1 | i
O=C(CN1CC(c2nc(-c3ncccn3)no2)C1)NCc1ccc(F)cc1 | i
O=C(NCc1ccc(Cl)cc1)c1cccc(-n2c(=S)[nH]c3ccccc3c2=O)c1 | i
CNC(=O)C(=O)NCC1OCCCN1S(=O)(=O)c1cc(C)ccc1C (configuration not stated) | i
Cc1ccccc1C(=O)Nc1c(C)nc2sc(C)c(C)n2c1=O | i
COc1cc(C(C)=O)ccc1OCC(=O)Nc1ccccc1-c1ccc(=O)[nH]n1 | i
COc1ccc(C(CC(=O)c2ccc(C)c(C)c2)C(C#N)C#N)cc1 (configuration not stated) | i
CCOC(=O)c1oc2cc(OC(C)C(=O)OCC)ccc2c(=O)c1-c1ccc(Br)cc1 (configuration not stated) | i
CC(C)(C)C(O)CCNC(=O)c1cccc(F)c1 (configuration not stated) | i
O=C(CCCn1c(=O)[nH]c2ccsc2c1=O)N1CCN(c2cccc(C(F)(F)F)c2)CC1 | i
CC(C)(Oc1ccc(Cl)cc1)C(=O)N(Cc1ccsc1)Cc1ccco1 | i
Cc1cc(C(=O)Nc2sc3c(c2-c2nc4ccccc4s2)CCN(C)C3)on1 | i

Random excerpt: four records from the list.
SMILES | GIRK2 activ
CCOC(=O)c1oc2cc(OC(C)C(=O)OCC)ccc2c(=O)c1-c1ccc(Br)cc1 (configuration not stated) | i
Cc1ccc(S(=O)(=O)NCCC(=O)O)c(C)c1N(C)S(C)(=O)=O | i
C/C=C(/C)C(=O)OC1c2c(ccc3ccc(=O)oc23)OC(C)(C)C1O (configuration not stated) | i
CCOC(=O)N1CCC(Oc2ccccn2)CC1 | i

New compounds follow
SMILES | GIRK2 activ
O=C1CCCN1c1ccc(Cn2cc(-c3nc(-c4cnccn4)no3)ccc2=O)cc1 | i
CC(C)N(CC#CCNC(=O)c1ccc(Br)cc1)C(C)C | i
Cc1noc(-c2ccn3c(=O)n(CC(=O)Nc4cc(F)ccc4F)nc3c2)n1 | i
C=C[C@](C)(CC[C@@]1(C)C(C)CC(OC2OC(C)C(OC3O[C@@H](COC(C)=O)[C@@H](O)[C@H](O)C3O)C(O)C2O)[C@@]2(C)C(C)=CCC[C@H]12)OC1O[C@H](C)C(O[C@H]2O[C@H](C)C(O)C(O)[C@@H]2O)C(O)C1O (some centres not stated) | i
Cc1ccc(NC(=O)CSc2nnc3ccc(C(=O)Nc4cccc(F)c4)cn23)cc1Cl | i
CC(=O)N1CCN(c2c(C)cnc3c2c(=O)n(CC(=O)Nc2cccc(F)c2)c(=O)n3C)CC1 | i
Cc1cc(C(F)(F)F)nc(CCNC(=O)Cn2c(=O)oc3ccccc32)n1 | i
O=C1C(=O)N(c2ccccn2)C(c2cccc(Cl)c2)C1=C(O)c1ccc(Cl)cc1 (configuration not stated) | i
COCCn1c(-n2nc(C)c(C)c2C)nc2c1c(=O)n(CCc1ccccc1)c(=O)n2C | i
O=C(Cn1ccn(-c2cccc(Cl)c2)c(=O)c1=O)NCCc1ccccc1 | i
Cc1ccc(/C=C/c2nc(C#N)c(N3CCN(C(=O)c4ccc(C)cc4)CC3)o2)cc1 | i
Cc1nc(C)c(-c2nnc(NC(=O)c3cc(Cl)ccc3Cl)o2)s1 | i
CCSc1nnc(NC(=O)c2ccc(-n3ccnc3C)nn2)s1 | i
CN(C(=O)c1ccc(-c2cccc([N+](=O)[O-])c2)o1)C1CCS(=O)(=O)C1 (configuration not stated) | i
CC(C)Sc1ccc(CC(=O)N2CCC(CSc3ccccn3)CC2)cc1 | i
O=C1CCCC2=C1C(c1ccc(-c3nc4ccccc4s3)o1)c1c([nH]c(=O)[nH]c1=O)N2 (configuration not stated) | i
CC1(C)CC[C@]2(C(=O)O[C@@H]3O[C@H](CO)[C@@H](O)[C@H](O)[C@H]3O)CC[C@]3(C)C(=CCC4[C@@]5(C)CC[C@H](O[C@@H]6O[C@H](C(=O)O)[C@@H](O)[C@H](O)[C@H]6O)[C@@](C)(CO)C5CC[C@]43C)C2C1 (some centres not stated) | i
COc1ccc(OC)c(S(=O)(=O)Nc2ccc(C)c(N3CCCC3=O)c2)c1 | i
Cc1cn2c3c(=O)n(C)c(=O)n(C)c3nc2n1-c1ccc(C(N)=O)cc1 | i

2 entries from above in another layout.
molecule: O=C(CSCc1ccccc1)NCC1CCN(Cc2cccs2)CC1
  GIRK2 activ: i

molecule: Cc1ccc(S(=O)(=O)NCCC(=O)O)c(C)c1N(C)S(C)(=O)=O
  GIRK2 activ: i
